MLL AF4-AF9 inh – inhibitors of human MLL-AF4/AF9 interaction; 350,000 compounds, 0.47% hits; inhibition, % at 10 µM; AlphaScreen, biotin-AF4 peptide binding to FLAG-AF9; P42568;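 active means every replicate reaching a set inhibition limit, whatever the replicate mean, cut at about 25% in these data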;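 further: 0% = plate neutral control median and 100% = total signal loss; the record names both 10 and 1 µM as test concentration; the first replicate is given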
Target sequence (P42568 whole entry, looked up): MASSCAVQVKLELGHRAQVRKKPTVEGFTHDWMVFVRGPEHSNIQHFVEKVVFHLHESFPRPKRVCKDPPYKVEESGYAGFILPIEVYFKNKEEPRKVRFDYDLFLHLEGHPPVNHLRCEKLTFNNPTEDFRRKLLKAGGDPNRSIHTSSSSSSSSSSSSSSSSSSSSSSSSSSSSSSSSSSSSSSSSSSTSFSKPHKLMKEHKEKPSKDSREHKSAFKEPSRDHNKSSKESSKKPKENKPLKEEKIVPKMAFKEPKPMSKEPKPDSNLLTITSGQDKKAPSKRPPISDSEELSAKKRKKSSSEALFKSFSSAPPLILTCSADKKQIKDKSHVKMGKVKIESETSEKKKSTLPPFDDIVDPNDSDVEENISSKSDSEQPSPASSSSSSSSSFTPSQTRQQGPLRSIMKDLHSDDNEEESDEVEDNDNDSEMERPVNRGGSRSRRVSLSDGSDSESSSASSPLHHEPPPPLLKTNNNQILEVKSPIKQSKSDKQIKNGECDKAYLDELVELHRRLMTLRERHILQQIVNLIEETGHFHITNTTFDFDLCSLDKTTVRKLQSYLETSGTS
Numbers without * were called inactive; & = joins results of further samples. The list is partial. The share of hits here may be higher or lower than overall.

SMILES	MLL AF4-AF9 inh
C[C@H](CO)N1C[C@H](C)[C@@H](CN(C)S(=O)(=O)c2ccc(F)cc2)OCCCC[C@H](C)Oc2ccc(NS(=O)(=O)c3ccc(Cl)cc3)cc2C1=O	1.3
CC(=O)N1CC(=O)N2[C@H](C1)[C@@H](c1ccc(C#Cc3cccnc3)cc1)[C@@H]2CO	-2.3
O=C([C@@H]1[C@@H](CO)[C@@H]2Cn3c(ccc(-c4cncnc4)c3=O)[C@@H]2N1C(=O)C1CCC1)N1CCCCC1	-3.6
COCC#Cc1ccc([C@@H]2[C@H](CO)N3C(=O)CN(C(=O)CN4CCOCC4)C[C@@H]23)cc1	-5.2
O=C(NC1CCCCC1)N1CC(=O)N2[C@H](C1)[C@H](c1ccc(/C=C/c3ccccc3)cc1)[C@@H]2CO	-5.9
CN(C)c1ccc2c(c1)[C@@H]1C[C@H](CC(=O)N3CCCCC3)O[C@H](CO)[C@@H]1O2	-0.6
O=C(NC1CCCCC1)N1CC(=O)N2[C@H](CO)[C@H](c3ccc(-c4cccnc4)cc3)[C@@H]2C1	-0.2
CO[C@H]1CN(C)C(=O)c2cc(NC(=O)C3CCCCC3)ccc2OC[C@@H](C)N(C(=O)c2ccccc2)C[C@@H]1C	-0.6
COCCNC(=O)[C@H]1[C@H](CO)[C@H]2Cn3c(cccc3=O)[C@H]2N1Cc1ccccc1OC	1.2
O=C(Nc1ccc(F)cc1)N1CC(=O)N2[C@H](C1)[C@@H](c1ccc(C#Cc3cccnc3)cc1)[C@@H]2CO	4.0
COC(=O)c1ccc(CN2CC(=O)N3[C@H](CO)[C@H](c4ccc(-c5ccccc5F)cc4)[C@H]3C2)cc1	3.4
COc1cccc(S(=O)(=O)N2C[C@@H]3N[C@H](C2)C3c2ccc(-c3cccc(C(=O)N(C)C)c3)cc2)c1 (some centres not stated)	-6.3&-5.4
CC=Cc1ccc2n(c1=O)C[C@H]1[C@H](CO)[C@@H](C(=O)NCc3ccncn3)N(C(=O)NC3CCCC3)[C@@H]21 (mixture of isomers)	-2.8
CN(C)C(=O)C[C@H]1C=C[C@@H](NS(=O)(=O)c2ccccc2)[C@@H](CO)O1	-3.4
COc1ccc(CN(C)C[C@H]2Oc3ccc(NC(=O)C4CCCCC4)cc3C(=O)N([C@H](C)CO)C[C@@H]2C)cc1	-1.1
COc1ccccc1-c1cnc2c(c1)C(=O)N([C@H](C)CO)C[C@@H](C)[C@H](CN(C)C(=O)c1cccnc1)O2	-1.2
C[C@@H]1CN([C@H](C)CO)C(=O)CCCn2nncc2CO[C@H]1CN(C)C(=O)CCCN(C)C	-15
COc1cccc(NC(=O)C[C@H]2CC[C@@H]3[C@H](COc4ccc(NC(=O)C5CCC5)cc4C(=O)N3C)O2)c1	-1.4
COCC(=O)Nc1ccc2c(c1)OC[C@H](C)N(CCC(F)(F)F)C[C@H](C)[C@@H](OC)CN(C)C2=O	-7.3
O=C(c1ccccn1)N1CC(=O)N2[C@H](C1)[C@H](c1ccc(-c3cccc(F)c3)cc1)[C@@H]2CO	-5.1
Cc1noc(C)c1S(=O)(=O)Nc1ccc2c(c1)C(=O)N([C@H](C)CO)C[C@@H](C)[C@H](CN(C)C)OCCCC[C@@H](C)O2	-3.3
C[C@@H]1CN([C@@H](C)CO)C(=O)c2cc(NC(=O)Nc3cccc4ccccc34)ccc2O[C@@H](C)CCCCO[C@@H]1CN(C)C(=O)Nc1ccccc1	-2.7
C[C@@H]1CN([C@H](C)CO)C(=O)c2cc(NC(=O)NC3CCCCC3)ccc2O[C@@H](C)CCCCO[C@@H]1CN(C)C(=O)Nc1ccccc1	-0.9
Cc1ccc(S(=O)(=O)N(C)C[C@@H]2OCCCC[C@H](C)Oc3ccc(NC(=O)Cc4ccccc4)cc3C(=O)N([C@H](C)CO)C[C@H]2C)cc1	-1.7
COc1ccc(C#Cc2ccc([C@@H]3[C@H]4CN(C(=O)c5ccccc5)CC(=O)N4[C@H]3CO)cc2)cc1	-1.4
O=C(c1cnccn1)N1CC(=O)N2[C@H](CO)[C@@H](c3ccc(-c4ccc(F)cc4)cc3)[C@H]2C1	2.2
CCC(=O)N[C@@H]1C=C[C@@H](CC(=O)NCC2CC2)O[C@@H]1CO	-1.4
Cc1ccccc1S(=O)(=O)N1CC(=O)N2[C@H](CO)[C@H](c3ccc(C#CC4CC4)cc3)[C@H]2C1	-0.8
C[C@@H]1CCCCO[C@@H](CN(C)C(=O)c2ccncc2)[C@H](C)CN([C@@H](C)CO)C(=O)c2cc(NC(=O)C3CCCCC3)ccc2O1	1.5
CCCC#Cc1ccc([C@H]2[C@@H](CO)N3C(=O)CN(C(=O)c4ccccc4)C[C@H]23)cc1	-2.6
Cc1ccc(S(=O)(=O)N2[C@@H]3CNC[C@H]2C3c2ccc(-c3cccnc3)cc2)cc1 (some centres not stated)	0.5&0.8
O=C(c1cccc(F)c1)N1CC(=O)N2[C@@H](CO)[C@H](c3ccc(C#Cc4ccc(F)cc4)cc3)[C@@H]2C1	-2.5
O=C(C[C@H]1CC[C@H]2[C@@H](COC[C@H](O)CN2C(=O)c2ccncc2)O1)NCc1ccc(-c2ccccc2)cc1	3.3
O=C(NC1CCCCC1)N1CC(=O)N2[C@H](CO)[C@@H](c3ccc(-c4cccnc4)cc3)[C@@H]2C1	-1.5
COc1cccc(C#Cc2ccc([C@@H]3[C@H]4CN(C(=O)Cc5cccnc5)CC(=O)N4[C@H]3CO)cc2)c1	-1.1
CO[C@H]1CN(C)C(=O)c2cc(NC(=O)c3ccc(F)cc3)ccc2OC[C@@H](C)N(C(=O)CN(C)C)C[C@H]1C	3.2
COc1cccc(-c2ccc([C@@H]3[C@@H](CO)N4C(=O)CN(C(=O)C5CCC5)C[C@@H]34)cc2)c1	-1.0
C[C@@H]1CN([C@H](C)CO)C(=O)c2cc(-c3cccc(F)c3)cnc2O[C@@H]1CN(C)Cc1cccnc1	-1.0
C/C=C/c1ccc([C@H]2[C@@H](CO)N(S(C)(=O)=O)[C@H]2CNC(C)C)cc1	-3.2
COc1cccc(-c2ccc([C@H]3[C@H]4CN(C(=O)CN5CCOCC5)CC(=O)N4[C@H]3CO)cc2)c1	-0.9

Arranged by count of non-hydrogen atoms (smallest number first): five of the compounds above.
SMILES	MLL AF4-AF9 inh
CCC(=O)N[C@@H]1C=C[C@@H](CC(=O)NCC2CC2)O[C@@H]1CO	-1.4
Cc1ccc(S(=O)(=O)N2[C@@H]3CNC[C@H]2C3c2ccc(-c3cccnc3)cc2)cc1 (some centres not stated)	0.5&0.8
O=C(c1cnccn1)N1CC(=O)N2[C@H](CO)[C@@H](c3ccc(-c4ccc(F)cc4)cc3)[C@H]2C1	2.2
CO[C@H]1CN(C)C(=O)c2cc(NC(=O)c3ccc(F)cc3)ccc2OC[C@@H](C)N(C(=O)CN(C)C)C[C@H]1C	3.2
Cc1noc(C)c1S(=O)(=O)Nc1ccc2c(c1)C(=O)N([C@H](C)CO)C[C@@H](C)[C@H](CN(C)C)OCCCC[C@@H](C)O2	-3.3

Next results follow.
SMILES	MLL AF4-AF9 inh
C[C@@H]1CN([C@@H](C)CO)C(=O)c2cc(NC(=O)c3ccccc3)ccc2O[C@@H](C)CCCCO[C@H]1CN(C)S(=O)(=O)c1cn(C)cn1	-1.2
COCC#Cc1ccc([C@H]2[C@@H](CO)N3C(=O)CN(C(=O)C4CCOCC4)C[C@H]23)cc1	-3.1
COc1ccc(CN2CC3(CN(C(=O)C4CCOCC4)C3)c3c(n(C)c4cc(OC)ccc34)[C@@H]2CO)cc1	1.1
Cc1cccc(-c2ccc(C3[C@@H]4CN(C(=O)Nc5ccc(F)cc5)C[C@H]3N4)cc2)c1 (some centres not stated)	3.4&1.7
CC(C)c1cn([C@H]2C[C@@H]3O[C@H](CO)CC[C@@H]3O[C@@H]2CCc2ccc(-c3ccccc3)cc2)nn1	-1.9
CC(=O)N1[C@H](CN(CC2CCC2)C(=O)CN(C)C)[C@@H](c2ccccc2)[C@@H]1CO	6.5
O=C(C[C@H]1C[C@H]2c3cc(NC(=O)c4cccnc4)ccc3O[C@H]2[C@@H](CO)O1)NC1CCCC1	-1.7
CCCNC(=O)N1C[C@H](C)[C@H](OC)CN(C)C(=O)c2ccc(NC(C)=O)cc2OC[C@H]1C	1.0
COc1ccc(NC(=O)N(C)C[C@H]2Oc3ccc(N(C)C)cc3C(=O)N([C@H](C)CO)C[C@H]2C)cc1	-0.9
O=C(C1CCOCC1)N1CC(=O)N2[C@H](CO)[C@@H](c3ccc(-c4cccnc4)cc3)[C@H]2C1	0.8
C[C@@H]1CCCCO[C@H](CN(C)CC2CC2)[C@H](C)CN([C@H](C)CO)C(=O)c2cc(NS(=O)(=O)c3ccc(F)cc3)ccc2O1	1.2
CCCN1[C@H](CO)[C@H](c2ccc(C#Cc3ccccc3)cc2)[C@@H]1CNC1CCCC1	9.4
C[C@@H]1CN([C@@H](C)CO)C(=O)c2cc(NS(=O)(=O)c3ccc(F)cc3)ccc2O[C@@H](C)CCCCO[C@@H]1CN(C)Cc1ccc2c(c1)OCO2	9.2
COc1ccccc1S(=O)(=O)N[C@@H]1CC[C@H](CC(=O)NCc2cc(F)cc(F)c2)O[C@@H]1CO	-3.8
C/C=C/c1ccccc1[C@@H]1[C@@H](C#N)N(C(=O)c2cccnc2)[C@H]1CO	-0.8
O=C(C[C@H]1CC[C@H]2[C@@H](COC[C@H](O)CN2S(=O)(=O)c2ccc(F)cc2)O1)NCc1ccc(Cl)c(Cl)c1	5.7
O=C(C[C@@H]1C=C[C@H](NC(=O)CN2CCOCC2)[C@H](CO)O1)NCCc1ccncc1	-2.4
C[C@@H]1CCCCO[C@@H](CN(C)CC2CCCCC2)[C@@H](C)CN([C@@H](C)CO)C(=O)c2cc(NC(=O)Nc3ccc4c(c3)OCO4)ccc2O1	-13
COc1cccc(-c2ccc([C@H]3[C@H](CO)N4C(=O)CN(C(=O)CN5CCOCC5)C[C@@H]34)cc2)c1	0.3
Cc1noc(C)c1S(=O)(=O)Nc1ccc2c(c1)C(=O)N([C@@H](C)CO)C[C@H](C)[C@@H](CN(C)C)OCCCC[C@@H](C)O2	-3.1
O=C(C1CCCC1)N1CC2(C1)[C@@H](c1ccccc1)[C@@H](CO)N2C(=O)NC1CCCC1	-1.2
C[C@@H]1CN([C@H](C)CO)C(=O)Cc2cc(NS(=O)(=O)c3ccc(F)cc3)ccc2O[C@H]1CN(C)C	-2.8
CCC(=O)N1[C@H](C(=O)N2CCCCC2)[C@@H](CO)[C@@H]2Cn3c(ccc(-c4cccc(F)c4)c3=O)[C@@H]21	0.0
O=C(NC1CCCCC1)N1CC(=O)N2[C@H](CO)[C@@H](c3ccc(-c4ccccc4)cc3)[C@H]2C1	-1.5
CCCNC(=O)Nc1ccc2c(c1)OC[C@@H](C)N(CC1CCCC1)C[C@@H](C)[C@H](OC)CN(C)C2=O	3.0
O=C(NCC1CC1)[C@H]1[C@H](CO)[C@H]2Cn3c(cccc3=O)[C@H]2N1Cc1cccc(F)c1	1.3
Cn1cnc(S(=O)(=O)N2[C@@H]3CNC[C@H]2C3c2ccc(/C=C/c3ccccc3)cc2)c1 (some centres not stated)	8.3&4.6
CCS(=O)(=O)N1CC(=O)N2[C@@H](CO)[C@H](c3ccc(C#Cc4ccc(F)cc4)cc3)[C@@H]2C1	-1.0
CN(C)CC(=O)N[C@H]1CC[C@H](CCNC(=O)C2CC2)O[C@@H]1CO	-3.1
O=C(Nc1ccccc1F)N1CC(=O)N2[C@H](CO)[C@@H](c3ccc(C#Cc4ccc(F)cc4)cc3)[C@@H]2C1	-0.2
C[C@H](O)C#Cc1ccc([C@H]2[C@@H](CO)N3CCCCN(C(=O)c4ccncc4)C[C@@H]23)cc1	-2.0
O=C(NC1CCC1)[C@@H]1N[C@@H]2c3ccc(-c4cccc(F)c4)c(=O)n3C[C@@H]2[C@H]1CO	-0.8
COc1ccc(CN2C[C@@H](C)[C@H](OC)CN(C)C(=O)c3ccc(NC(=O)c4nc5ccccc5s4)cc3OC[C@@H]2C)cc1	6.4
O=C(C1CCC1)N1CC(=O)N2[C@H](CO)[C@H](c3ccc(-c4cccnc4)cc3)[C@@H]2C1	-4.3
COc1ccc(S(=O)(=O)Nc2ccc3c(c2)C(=O)N(C)C[C@H](OC)[C@@H](C)CN[C@@H](C)CO3)cc1	-2.3
CO[C@@H]1CN(C)C(=O)c2ccc(NC(C)=O)cc2OC[C@H](C)N(C(=O)C2CCC2)C[C@H]1C	0.1
CCCCCCC12C(=Cc3cc4c(cc31)OCCO4)c1cc(OC)c(OC)cc1C(CC(=O)NCc1ccccc1)N2C(=O)OC (configuration not stated)	0.8
O=C(Nc1cccc(F)c1)N1CC(=O)N2[C@@H](CO)[C@@H](c3ccc(C#CCC4CCCC4)cc3)[C@@H]2C1	-4.8
CN(C)CC#Cc1ccc([C@H]2[C@H]3CN(C(=O)Nc4ccc(F)cc4)CCCCN3[C@H]2CO)cc1	-2.0
COc1ccc(-c2ccc([C@@H]3[C@@H](CO)N4C(=O)CN(C(=O)C5CCC5)C[C@@H]34)cc2)cc1	-2.8
COCC#Cc1ccc([C@@H]2[C@@H](CO)N3C(=O)CN(C(=O)C4CC4)C[C@@H]23)cc1	-3.8
O=C(C[C@H]1CC[C@H](NS(=O)(=O)c2ccccc2)[C@H](CO)O1)N1CCC(Cc2ccccc2)CC1	-1.4
O=C(Nc1ccc(F)cc1)N1CC(=O)N2[C@H](CO)[C@H](c3ccc(Br)cc3)[C@@H]2C1	-2.6
COc1cccc(-c2ccc([C@@H]3[C@H]4CNCC(=O)N4[C@H]3CO)cc2)c1	-2.7

At a glance, three of the compounds above.
SMILES	MLL AF4-AF9 inh
O=C(C[C@H]1CC[C@H](NS(=O)(=O)c2ccccc2)[C@H](CO)O1)N1CCC(Cc2ccccc2)CC1	-1.4
O=C(Nc1ccc(F)cc1)N1CC(=O)N2[C@H](CO)[C@H](c3ccc(Br)cc3)[C@@H]2C1	-2.6
COc1cccc(-c2ccc([C@@H]3[C@H]4CNCC(=O)N4[C@H]3CO)cc2)c1	-2.7

Source: PubChem BioAssay (Broad Institute)
